HSV augment – HSV replication enhancement; AID 1956; HSV replication augmentation in cells, fold increase; 220,000 tested, 0.005% active; maximum fold increase;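 active means peak rise of 1.5-fold or more in the series; tested in PC3 cells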;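 further: first round at 10 µM; read as green reporter fluorescence; hits show the peak of a series up to 25 µM; 1 = signal of infected wells without compound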
HSV augment primary fold – second read-out of HSV augment, no call of its own (marks repeat the call); fold increase; compound at 10 µM; measured here: primary screen fold increase 10 uM; tested in PC3 cells;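 GFP signal in the first replicate; 1 = infected wells without compound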
* marks the source's active call; other numbers are inactive results; i = inactive. The list is partial. The share of hits here may be higher or lower than overall.

SMILES | HSV augment | HSV augment primary fold
C[C@@H]1C=C(C(=O)NCc2nc3ccccc3[nH]2)O[C@H](OCCCCO)C1 | i | 0.81
OCCNc1nc(Nc2ccccc2Oc2ccccc2)nc(N2CCCC2)n1 | i | 0.61
CC(C)=CCc1c(O)c(CC=C(C)C)c2c(c1O)-c1cc(O)c(O)cc1CC2 | i | 0.86
COC(=O)[C@H]1[C@@H](C)N(Cc2ccccc2)C(=O)N[C@H]1c1ccccc1 | i | 0.77
CCc1cc(Cl)c(OC)c(C(=O)NC[C@@H]2CCCN2CC)c1O | i | 0.81
COc1ccccc1Nc1nc(NCCO)nc(N2CCCC2)n1 | i | 0.73
O=C1CC2(CCCCC2)Oc2ccc(F)cc21 | i | 0.66
Cc1ccc(CNC(=O)C2CC(c3ccccc3C(F)(F)F)=NO2)o1 (stereo unspecified) | i | 0.9
COCOc1ccc(/C=C/C(=O)c2c(O)cc(OCOC)cc2OCOC)cc1 | i | 0.94
CNC(CC(C)C)C(=O)NC1C(=O)NC(CC(N)=O)C(=O)NC2C(=O)NC3C(=O)NC(C(=O)NC(C(=O)O)c4cc(O)cc(O)c4-c4cc3ccc4O)C(O)c3ccc(c(Cl)c3)Oc3cc2cc(c3OC2OC(CO)C(O)C(O)C2OC2CC(C)(N)C(O)C(C)O2)Oc2ccc(cc2Cl)C1O (stereo unspecified) | i | 0.96
COC/C=C/C1=CC2=CC(=O)C(C)(OC(=O)c3cnc4ccccc4n3)C(=O)C2=CN1CCc1c[nH]c2ccccc12 (stereo unspecified) | i | 0.96
CC1=C(/C=C/C(C)=C/C=C/C(C)=C/C=C/C=C(C)/C=C/C=C(C)/C=C/C2=C(C)CCCC2(C)C)C(C)(C)CCC1 | i | 0.78
Cc1cc(OC(=O)c2c(C)cc(OC(=O)c3c(C)cc(O)cc3O)cc2O)cc(O)c1C(=O)O | i | 0.96
COC(=O)C(N)CCCCN (stereo unspecified) | i | 0.64
COCCNC(=O)C1(C(F)(F)F)CC(CCCO)CCCO1 (stereo unspecified) | i | 0.98
O=C(NCc1ccc(OC(F)(F)F)cc1)C1CC(c2ccc(C(F)(F)F)cc2)=NO1 (stereo unspecified) | i | 0.98
CC(C)c1cc(C(C)C)c(S(=O)(=O)N2c3ccccc3[C@]3(Br)C[C@H]4C(=O)N[C@@H](Cc5ccccc5)C(=O)N4[C@H]23)c(C(C)C)c1 | i | 0.8
CC(C)C[C@H]1COCCS(=O)(=O)N1Cc1cccc(C(F)(F)F)c1 | i | 0.72
CCO[C@@H]1OC(C(=O)NCc2nc3ccccc3[nH]2)=C[C@H](C(C)(C)C)[C@H]1CCCO | i | 0.6
CC#CCN1c2ccccc2[C@]23C[C@@H](C(=O)OC)N(C(=O)NC4CCCCC4)C2=NC(C(=O)OC)=C(C(=O)OC)[C@H]13 | i | 0.9
CC(=O)N1CC2(C)CN(C(C)=O)CC(C)(C1)C2=O | i | 1
COc1ccc(CC2NCCC3=CC(=O)CCC32)cc1O (stereo unspecified) | i | 0.83
COc1cc(C)c(/C=C/C(C)=C/C=C/C(C)=C/C(=O)O)c(C)c1C | i | 0.91
COc1ccc2[nH]c(=O)c(-c3nnn(-c4ccc(Cl)c(Cl)c4)n3)cc2c1 | i | 1.1
Cc1cccc(Nc2nc(NCCO)nc(N3CCCC3)n2)c1 | i | 0.73
CNC(=O)Oc1ccc2c(c1)[C@]1(C)CCN(C)C1N2C (stereo partly specified) | i | 0.83
COC(=O)CNC(=O)c1ccccc1 | i | 1
CCOC(=O)c1cnc(=O)[nH]c1C | i | 0.95
CCN1C(=O)N[C@@H](c2cccc(C(F)(F)F)c2)C(C(C)=O)=C1C | i | 1.1
COc1ccc(N2CCN(c3nc4c(c(=O)n(C)c(=O)n4C)n3CCCc3ccccc3)CC2)cc1 | i | 0.92
COCCN1C(=O)N[C@@H](c2cccc(C(F)(F)F)c2)[C@H](C(=O)OC)[C@H]1C | i | 0.72
COc1ccc(-c2noc3c2-c2nc(C(C)C)sc2CC3)cc1 | i | 0.86
CC(C)=CCc1cc([C@@H]2COc3c(ccc4c3C=CC(C)(C)O4)C2)c(O)cc1O | i | 0.93
OCCCn1c(C2CCCN2c2nc(-c3ccc(F)cc3)cs2)nc2cc(Cl)c(Cl)cc21 (stereo unspecified) | i | 0.82
CCOC(=O)C[C@H]1c2cc(C(F)(F)F)ccc2S(=O)(=O)N1Cc1ccccc1 | i | 1.2
COC(=O)C1=C(C)N(CCCC(=O)O)C(=O)NC1c1cccc2ccccc12 (stereo unspecified) | i | 0.79
Cc1cc(C)cc(SCc2noc(C(=O)NCC3CC3)c2C(=O)NCC2CC2)c1 | i | 0.82
COc1ccc(CCN(C(=O)c2ccc(F)cc2)C2=CC3CCC(C2)N3C)cc1OC (stereo unspecified) | i | 0.88
COC(=O)C1=C(C(=O)OC)[C@@H]2N(C)c3ccccc3[C@@]23C[C@@H](CO)N=C3N1 | i | 0.92
Cn1cc(C[C@H](NC(=O)OC(C)(C)C)C(=O)N[C@@H](CO)Cc2ccccc2)c2ccccc21 | i | 0.82
CC1(C)CC[C@]2(C(=O)O)CC[C@]3(C)C(=CCC4[C@@]5(C)CC[C@H](O)C(C)(C)C5[C@H](O)C[C@]43C)[C@@H]2C1 (stereo partly specified) | i | 0.82
C=CC(C)(C)c1c(O)c(CC=C(C)C)c(O)c2c(=O)c3ccc(O)c(O)c3oc12 | i | 0.57
COC(=O)N[C@H](c1ccccc1)[C@@]1(C)C[C@@H]1[C@@H](C)C(=O)Nc1ccc2ccccc2c1 | i | 0.98
CSc1ncc(CNc2cc([N+](=O)[O-])ccc2C)c(N)n1 | i | 1.2
O=c1oc2ccccc2cc1-c1nnc(-c2cccc(Br)c2)o1 | i | 0.94
NCC1CCC(C(=O)Oc2ccc(CCC(=O)O)cc2)CC1 (stereo unspecified) | i | 0.91
CC1(C(=O)NCCCNc2ncc(C(F)(F)F)cc2Cl)C=CC2(CCCCC2)N1C(=O)c1ccccc1 (stereo unspecified) | i | 0.74
CC(Oc1ccccc1)C(=O)N1CCC2(CC1)Oc1ccc(Cl)cc1C(=O)C21CC(c2ccccc2)=NO1 (stereo unspecified) | i | 0.63
CC1CCN(c2nc3ccccc3nc2C(C#N)C(=O)NC2CCCCC2)CC1 (stereo unspecified) | i | 0.94
COC(=O)c1c(-c2ccsc2)oc2ccc(-c3cc(OC)c(OC)c(OC)c3)cc12 | i | 1.1
COC(=O)c1ccc([C@H](NC(=O)c2ccco2)[C@]2(C)C[C@H]2C2CCCCC2)cc1 | i | 0.8
C=C1CCN([C@@H](Cc2ccccc2)C(=O)NC2CCN(Cc3ccccc3)CC2)S(=O)(=O)c2ccccc21 | i | 1
O=c1c2ccccc2oc2cc(C#CC3(O)CCCCC3)ccc12 | i | 0.84
CS(=O)(=O)OCCCCOS(C)(=O)=O | i | 0.64
COc1ccc(CN2C(=O)[C@H]3Cc4c([nH]c5ccccc45)C(C)(C)N3C2=O)cc1 | i | 0.84
O=C(NCc1cccc(Br)c1)C1CC(c2ccccc2[N+](=O)[O-])=NO1 (stereo unspecified) | i | 1.2
COc1cccc(OC)c1OCCNCC1CSc2ccccc2O1 (stereo unspecified) | i | 0.8
O=C(c1ccc(-c2ccccc2Cl)s1)N1CCOCC1 | i | 0.83
Cc1ccc(CNC(=O)c2cc(-c3ccccc3)nn2CC2CC(c3cccc([N+](=O)[O-])c3)=NO2)cc1 (stereo unspecified) | i | 0.8
CCCCCCCCCCCCN1[C@@H](CC(=O)OC)c2cc(F)cc(F)c2S1(=O)=O | i | 1

3 structures from above, ordered by number of heavy atoms, falling.
SMILES | HSV augment | HSV augment primary fold
CC1(C(=O)NCCCNc2ncc(C(F)(F)F)cc2Cl)C=CC2(CCCCC2)N1C(=O)c1ccccc1 (stereo unspecified) | i | 0.74
NCC1CCC(C(=O)Oc2ccc(CCC(=O)O)cc2)CC1 (stereo unspecified) | i | 0.91
CS(=O)(=O)OCCCCOS(C)(=O)=O | i | 0.64

Other entries
SMILES | HSV augment | HSV augment primary fold
CCCC/C=C/C(NC(=O)c1ccc(-c2ccccc2)cc1)c1ccccc1 (stereo unspecified) | i | 0.74
CCC/C=C1/CCCOC(C(=O)NCCNCCO)(C(F)(F)F)C1 (stereo unspecified) | i | 0.89
OCCOCCn1c(C(CO)Nc2nc(-c3cccc(Br)c3)cs2)nc2ccccc21 (stereo unspecified) | i | 0.76
C[N+](C)(C)C[C@H](O)CC(=O)O | i | 0.91
COC(=O)C1=C(C(=O)OC)[C@@H]2N(C)c3ccc(OC)cc3[C@@]23C[C@@H](C(=O)OC)N(C(=O)NC2CCCCC2)C3=N1 | i | 0.86
CC1=C(C/C=C(\C)CCC[C@H](C)CCC[C@H](C)CCCC(C)C)C(=O)c2ccccc2C1=O | i | 0.67
CC(C)=CCc1cc([C@@H]2CC(=O)c3ccc(O)c(CC=C(C)C)c3O2)ccc1O | i | 0.88
O=C(NCC1CC1)C1(C(F)(F)F)C/C(=C\Cc2ccccc2)CCCO1 (stereo unspecified) | i | 0.82
CC(C)[C@H](NC(=O)OC(C)(C)C)c1nnc(S(=O)(=O)Cc2c(F)cccc2Cl)o1 | i | 0.6
O=C1CC2(CCCCC2)Oc2ccc(Cl)cc21 | i | 0.83
O=C(Cn1cnc2c(nnn2-c2cccc(Cl)c2)c1=O)N1CCOCC1 | i | 1
Cc1cc(C)n2nc(C(=O)Oc3ccc4c(c3)OCO4)nc2n1 | i | 0.9
COc1ccc(OC)c(Nc2cc3ccccc3c(=O)[nH]2)c1 | i | 0.64
CS(=O)(=O)c1ccc(CNC(=O)C2(C(F)(F)F)CC(CCCO)CCCO2)cc1 (stereo unspecified) | i | 1.1
CC(=O)O[C@@H]1[C@@H](O)[C@@H](O)[C@H](Oc2c(-c3ccc(O)cc3)oc3c(CC=C(C)C)c(O)cc(O)c3c2=O)O[C@H]1C | i | 0.76
COc1ccc(-c2ccc3sc4ccccc4c(=O)c3c2)cn1 | i | 0.69
COC(=O)CCC(=O)OC1(C)C(=O)C2=CN(c3ccccc3)C(c3ccc(OC)cc3)=CC2=C(Br)C1=O (stereo unspecified) | i | 0.84
COc1ccc(-c2ccc3oc(-c4ccc(OC)cc4)c(C#CCO)c3c2)cc1 | i | 0.91
CCN1C(=O)N[C@@H](c2ccccc2)[C@@H](C(=O)OC)[C@H]1C | i | 0.94
CCOC(=O)c1sc(SCc2ccccc2)c2c1CC(C)(C)CC2=O | i | 1.1
Cn1c(=O)c2c(nc(CN3CCN(c4ccccc4)CC3)n2CCN2CCOCC2)n(C)c1=O | i | 0.78
Cc1cc(-c2cc(C(=O)Nc3ccccc3)on2)nc(NC2CCCC2)n1 | i | 0.78
CCN1C(=O)N[C@@H](CCc2ccccc2)C(C(C)=O)=C1C | i | 0.9
CCOC(=O)C[C@H]1c2cc(F)ccc2S(=O)(=O)N1c1cccc(OC)c1 | i | 0.85
COC(=O)C[C@H]1c2cc(C(F)(F)F)ccc2S(=O)(=O)N1Cc1ccc(OC)cc1 | i | 0.85
C[C@]1(C2CCCC2)Cc2cc(OCC(=O)O)c(Cl)c(Cl)c2C1=O | i | 0.88
CCOC(=O)C1=C(C)N(CCCCCC(=O)O)C(=O)NC1c1ccccc1OS(=O)(=O)c1ccc(C)cc1 (stereo unspecified) | i | 0.82

Structural class, the compounds so far with four or more nitrogen atoms.
SMILES | HSV augment | HSV augment primary fold
OCCNc1nc(Nc2ccccc2Oc2ccccc2)nc(N2CCCC2)n1 | i | 0.61
COc1ccccc1Nc1nc(NCCO)nc(N2CCCC2)n1 | i | 0.73
CNC(CC(C)C)C(=O)NC1C(=O)NC(CC(N)=O)C(=O)NC2C(=O)NC3C(=O)NC(C(=O)NC(C(=O)O)c4cc(O)cc(O)c4-c4cc3ccc4O)C(O)c3ccc(c(Cl)c3)Oc3cc2cc(c3OC2OC(CO)C(O)C(O)C2OC2CC(C)(N)C(O)C(C)O2)Oc2ccc(cc2Cl)C1O (stereo unspecified) | i | 0.96
COC/C=C/C1=CC2=CC(=O)C(C)(OC(=O)c3cnc4ccccc4n3)C(=O)C2=CN1CCc1c[nH]c2ccccc12 (stereo unspecified) | i | 0.96
CC#CCN1c2ccccc2[C@]23C[C@@H](C(=O)OC)N(C(=O)NC4CCCCC4)C2=NC(C(=O)OC)=C(C(=O)OC)[C@H]13 | i | 0.9
COc1ccc2[nH]c(=O)c(-c3nnn(-c4ccc(Cl)c(Cl)c4)n3)cc2c1 | i | 1.1
Cc1cccc(Nc2nc(NCCO)nc(N3CCCC3)n2)c1 | i | 0.73
COc1ccc(N2CCN(c3nc4c(c(=O)n(C)c(=O)n4C)n3CCCc3ccccc3)CC2)cc1 | i | 0.92
OCCCn1c(C2CCCN2c2nc(-c3ccc(F)cc3)cs2)nc2cc(Cl)c(Cl)cc21 (stereo unspecified) | i | 0.82
CSc1ncc(CNc2cc([N+](=O)[O-])ccc2C)c(N)n1 | i | 1.2
CC1(C(=O)NCCCNc2ncc(C(F)(F)F)cc2Cl)C=CC2(CCCCC2)N1C(=O)c1ccccc1 (stereo unspecified) | i | 0.74
CC1CCN(c2nc3ccccc3nc2C(C#N)C(=O)NC2CCCCC2)CC1 (stereo unspecified) | i | 0.94
Cc1ccc(CNC(=O)c2cc(-c3ccccc3)nn2CC2CC(c3cccc([N+](=O)[O-])c3)=NO2)cc1 (stereo unspecified) | i | 0.8
OCCOCCn1c(C(CO)Nc2nc(-c3cccc(Br)c3)cs2)nc2ccccc21 (stereo unspecified) | i | 0.76
COC(=O)C1=C(C(=O)OC)[C@@H]2N(C)c3ccc(OC)cc3[C@@]23C[C@@H](C(=O)OC)N(C(=O)NC2CCCCC2)C3=N1 | i | 0.86
O=C(Cn1cnc2c(nnn2-c2cccc(Cl)c2)c1=O)N1CCOCC1 | i | 1
Cc1cc(C)n2nc(C(=O)Oc3ccc4c(c3)OCO4)nc2n1 | i | 0.9
Cn1c(=O)c2c(nc(CN3CCN(c4ccccc4)CC3)n2CCN2CCOCC2)n(C)c1=O | i | 0.78
Cc1cc(-c2cc(C(=O)Nc3ccccc3)on2)nc(NC2CCCC2)n1 | i | 0.78
